Screening data deposited in PubChem by National Center for Advancing Translational Sciences (NCATS).
CtBP-E1A blk – qHTS Assay for Inhibitors of the CtBP/E1A Interaction; CtBP / adenovirus E1A interaction (AlphaScreen); AlphaScreen GST-E1A/His-CtBP binding, 1536-well; active compounds read low; control for the full effect not named in the record; activity change, % (test concentration not listed); 340,000 tested, 0.49% active; AID 651724, 2012; in the data active means activity change below about -65%; inconclusive means about -30% to -65%; inactive means above about -30%; note: % is set by controls: 0 for no effect and ±100 for the full control effect
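AlphaScreen with 125 nM GST-E1A and 125 nM His-CtBP (5X stocks) in Tris pH 8.0, 300 mM NaCl, BSA, Tween 20, TCEP. Compounds preincubated 2 h at 37 deg C, then glutathione donor/nickel acceptor beads added for 1 h at 37 deg C in dark.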
D2 PAM – Beta-Arrestin HTS for Positive Allosteric Modulators of the Human D2 Dopamine Receptor: Potentiators; 360,000 tested, 0.23% active; DiscoveRx D2 beta-arrestin cells, luminescence, 90 min; 100% = 57 uM dopamine signal; AID 624464, 2012; potentiation, % (test concentration not listed); D(2) dopamine receptor (Homo sapiens), P14416; active = potentiation of 50% or more; inconclusive = 30% to 50%; inactive = 30% or less;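 note: compound concentration not given in the record; tested on top of an EC20 dose of dopamine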
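PathHunter D2 cells, attached overnight at 37 deg C, received compound in DMSO plus dopamine at EC20 (50 nM final) for 90 min at 37 deg C. Beta-arrestin recruitment was read as luminescence after 1 h with detection reagent at ambient temperature.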
TRPV1 PAM – HTS Assay for Compounds that Act as Potentiators of the Vanilloid Receptor 1; Transient receptor potential cation channel subfamily V member 1 (Homo sapiens), Q8NER1; TRPV1-expressing cells, Fluo-8 calcium influx, capsaicin EC20 potentiation; host cell line not named in the record; control for the full effect not named in the record; potentiation, % at 8.33 µM; 320,000 tested, 0.02% active; AID 540277, 2011; active means potentiation above 80%; inconclusive means 30% to 80%; inactive means below 30%; note: 0% is about no effect
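TRPV1-expressing cells were cultured overnight at 35.5C and loaded with Fluo-8 calcium dye for 40 to 90 min at room temperature. After a 10 s baseline, compound was added and calcium influx was read kinetically for 3 min (ex 480/em 520 nm).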
TRPML1 blocker – qHTS for Inhibitors of the Human Mucolipin Transient Receptor Potential 1 (TRPML1); Mucolipin-1 (Homo sapiens), Q9GZU1; TRPML1-inducible cells, Ca2+ dye fluorescence, FDSS; active compounds read low; inhibition of EC80 agonist-evoked calcium signal; activity change, negative = inhibition, % (no concentration beside the values); 390,000 tested, 0.02% active; AID 624415, 2012; in the data active means activity change below about -50%; inconclusive means about -30% to -50%; inactive means above about -30%;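 note: stimulus is agonist 54-4 at its EC80 concentration; % is set by controls: 0 for no effect and ±100 for the full control effect; compound concentration not given in the record; the text of the record puts the active cut at -80%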
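Tet-induced TRPML1-DL cells loaded with Ca8 no-wash calcium dye were read kinetically on FDSS. Compound addition was followed by EC80 agonist 54-4 (4 uM final); inhibition was read over 110 s.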
TRPML1 agonist – qHTS for Agonists of the Human Mucolipin Transient Receptor Potential 1 (TRPML1). Mucolipin-1 (Homo sapiens), Q9GZU1. TRPML1-expressing cells, Ca2+ dye fluorescence, FDSS; host cell line not named in the record; reference of the full effect not given here. activation, % (no concentration beside the values). 410,000 tested, 0.12% active. AID 624414, 2012; in the data active = activation above about 50%; inconclusive = about 30% to 50%; inactive = below about 30%; note: 0% is about no effect; the text of the record puts the active cut at 80%
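Calcium fluorescence on an FDSS kinetic reader gave the read-out. Tet-induced TRPML1-DL cells were plated overnight, dye-loaded (Ca8 with quencher, 45-90 min, room temperature, dark), then read 110 s after compound addition, and again 110 s after 4uM final 54-4 (EC80).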
Six1-Eya2 blk – qHTS Assay for Inhibitors of the Six1/Eya2 Interaction; Homeobox protein SIX1 (Homo sapiens) + Protein phosphatase EYA2 (Homo sapiens), …; AlphaScreen GST-Six1/His-Eya2 binding, biochemical; active compounds read low; control for the full effect not named in the record; activity change, % (concentration not given with the values); 360,000 tested, 0.56% active; AID 651725, 2012; in the data active = activity change below about -65%; inconclusive = about -30% to -65%; inactive = above about -30%; note: % is set by controls: 0 for no effect and ±100 for the full control effect
Target sequence (O00167 whole entry, looked up): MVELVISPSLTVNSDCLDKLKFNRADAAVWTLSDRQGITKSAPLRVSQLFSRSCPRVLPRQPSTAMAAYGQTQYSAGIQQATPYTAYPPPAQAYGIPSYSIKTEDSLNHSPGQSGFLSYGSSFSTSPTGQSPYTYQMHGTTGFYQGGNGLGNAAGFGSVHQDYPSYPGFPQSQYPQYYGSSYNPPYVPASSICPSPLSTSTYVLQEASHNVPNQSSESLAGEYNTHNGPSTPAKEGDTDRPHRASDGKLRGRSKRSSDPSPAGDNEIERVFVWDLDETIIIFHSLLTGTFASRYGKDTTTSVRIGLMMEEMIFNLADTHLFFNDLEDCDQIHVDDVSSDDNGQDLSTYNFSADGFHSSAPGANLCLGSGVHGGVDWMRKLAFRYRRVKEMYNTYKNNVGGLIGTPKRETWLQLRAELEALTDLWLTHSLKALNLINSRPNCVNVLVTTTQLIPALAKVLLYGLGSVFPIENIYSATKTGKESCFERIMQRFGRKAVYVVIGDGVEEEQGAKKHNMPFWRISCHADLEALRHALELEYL
Target sequence (Q15475 whole entry, looked up): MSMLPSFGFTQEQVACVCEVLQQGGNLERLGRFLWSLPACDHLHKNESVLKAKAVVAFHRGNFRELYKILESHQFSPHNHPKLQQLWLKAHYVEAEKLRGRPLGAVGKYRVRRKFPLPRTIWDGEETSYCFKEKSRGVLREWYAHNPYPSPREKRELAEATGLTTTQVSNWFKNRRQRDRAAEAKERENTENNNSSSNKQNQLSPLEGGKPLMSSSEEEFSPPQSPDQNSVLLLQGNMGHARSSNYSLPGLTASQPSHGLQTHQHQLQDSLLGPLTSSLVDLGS
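Six1/Eya2 binding was read as AlphaScreen signal after compounds were pinned into GST-Six1 plus His-tagged Eya2 (5X stock 250/500 nM) in pH 8.0 Tris/NaCl/TCEP buffer, beads added, then incubated 1 h, 37 C, dark.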
* marks the source's active call; other numbers are inactive results; ? = inconclusive; / = no result given.

Below each SMILES – CtBP-E1A blk	D2 PAM	TRPV1 PAM	TRPML1 blocker	TRPML1 agonist	Six1-Eya2 blk
> Cc1ccc(Nc2nnc(SCC(=O)Nc3cccc(S(=O)(=O)NC4=NCCCCC4)c3)s2)cc1
→ -3	-9	-4	-4	-0.2	-7
> CS(=O)(=O)N(CC(=O)N1CCc2ccccc2C1)Cc1ccc(F)cc1
→ 4	2	-5	-14	-0.4	-3
> Oc1ccc2ccccc2c1CNc1ccc(Br)cc1
→ 0	-7	23	33	2.0	-2
> O=C(c1ccc(Cn2cc(Cl)cn2)cc1)N1CCN(c2ccccc2)CC1
→ 0	-12	-4	0	-0.3	-6
> CCCOc1cccc(NC(=O)c2cc(C)oc2C)c1
→ -3	-10	-25	-13	-0.2	-10
> Cc1cc(C)nc(SCCCNCc2ccc(Br)cc2)n1
→ /	-8	5	-2	-0.8	-8
> COc1cc(OC)cc(-c2nnc(Nc3nc4c(F)cccc4s3)o2)c1
→ 17	-14	8	8	-0.5	-1
> Fc1cccc(F)c1-c1nc2c(s1)CCc1onc(-c3ccc(Br)cc3)c1-2
→ 17	-2	/	-3	-0.2	11
> COc1ccc(/C=N/NC(=O)CSc2ccccn2)cc1OC
→ -17	-1	/	9	0.6	-12
> CCn1c2ccccc2c2cc(/C=N/n3cn[nH]c3=S)ccc21
→ -10	9	-4	14	0.8	-7
> Cc1ccc(CNC(=O)CCNC(=O)c2ccco2)cc1
→ 7	-5	1	21	-0.2	6
> COc1ccc(CCNS(=O)(=O)c2cc3c4c(c2)CC(=O)N4CCC3)cc1
→ 1	-4	-2	3	-0.5	-1
> CCOC(=O)c1c(-c2ccco2)csc1NC(=O)CSc1nnc(N)s1
→ 0	-9	-10	-14	3.2	-16
> Cc1ccc(NC(=O)C(c2ccc(Cl)cc2)N2CCOCC2)cc1 (stereo unspecified)
→ 2	-3	5	-21	2.9	4
> COc1ccc(/C(C)=N/NC(=O)c2ccc(N(C)C)cc2)cc1
→ -16	-3	22	13	-1.3	7
> CCOc1ccccc1N1CCN(C(=S)NCc2ccco2)CC1
→ -3	-3	-12	2	0.0	-1
> COc1ccccc1CN(C)C(=O)c1ccc2c(c1)NC(=O)CS2
→ 0	-6	5	16	0.3	-1
> O=C(O)CSC1CC(=O)N(c2ccc(Cl)c(Cl)c2)C1=O (stereo unspecified)
→ -3	-13	10	7	1.0	1
> CCSc1nnc(N(CCC(=O)O)CCC(=O)O)s1
→ 10	-5	-11	7	-0.2	4
> COc1cc(CNC2CCCCCCC2)cc(Cl)c1OC
→ -5	-12	-1	10	-0.1	2

Looked up above:
Under TRPML1 blocker, CCSc1nnc(N(CCC(=O)O)CCC(=O)O)s1 shows 7
Under CtBP-E1A blk, Cc1ccc(NC(=O)C(c2ccc(Cl)cc2)N2CCOCC2)cc1 (stereo unspecified) shows 2

Next entries
Below each SMILES – CtBP-E1A blk	D2 PAM	TRPV1 PAM	TRPML1 blocker	TRPML1 agonist	Six1-Eya2 blk
> O=C(c1ccc(F)cc1)N(c1ccccn1)C1CCCCC1
→ 1	-8	-5	-7	0.1	-2
> COc1cccc(N(CC(=O)NCCN2CCOCC2)S(=O)(=O)c2ccccc2)c1
→ 9	-24	10	0	0.5	2
> Cc1ccc(NC(=O)Cn2ccc([N+](=O)[O-])n2)cc1Cl
→ 5	-12	?	1	-0.3	2
> CCOC(=O)Cn1nc(C)c(NC(=O)COc2ccc([N+](=O)[O-])cc2)c1C
→ 0	-12	-1	9	0.2	16
> COc1ccc(C2(CNC(=O)Cc3ccccc3)CCCC2)cc1OC
→ 3	-11	-8	0	-0.7	6
> COC(=O)c1ccc(CNC(=O)COC(=O)CCN2C(=O)C3CC=CCC3C2=O)cc1 (stereo unspecified)
→ 2	-20	7	-14	0.6	5
> Cc1ccc(S(=O)(=O)c2cc3c(=O)n4ccccc4nc3n(C)c2=N)cc1
→ ?	11	-16	5	-0.5	?
> Cc1[nH]n(C)c(=O)c1N=Nc1ccc(S(C)(=O)=O)cc1
→ 2	-12	-21	7	-0.7	2
> Cc1nc2ccc([N+](=O)[O-])cc2c(=O)n1Cc1ccc(Cl)cc1
→ /	4	17	20	-0.6	-2
> Cc1cccc(-c2cc3nc(C)cc(=O)n3[nH]2)c1
→ 3	-11	/	2	0.0	-4
> CCCCC[C@@H]1C=C(C(=O)O)[C@H](c2ccc(C)cc2)N1S(=O)(=O)c1ccc(C)cc1
→ -3	/	/	-9	0.1	-2
> Cc1cccc(CCNC(=O)CCc2nnc(CCc3ccccc3)o2)n1
→ -10	0	0	7	0.8	10
> O=C1CC(c2cc3c(cc2Br)OCO3)C2=C(CCCC2=O)N1 (stereo unspecified)
→ 13	-2	5	-15	-1.4	-1
> COc1cccc2cc(C(C)N(CCCN3CCOCC3)C(=S)Nc3c(C)cccc3C)oc12 (stereo unspecified)
→ -3	-21	19	2	-0.8	-6
> Cc1sc2cc3c(c(C(=O)c4ccccc4)[n+]2c1C)-c1cccc2cccc-3c12
→ 1	-15	2	-2	0.0	-19
> Cc1ccc(/C=C/C(=O)O)cc1S(=O)(=O)N(CCO)CCO
→ 2	4	27	7	1.1	1
> CC(C)NC(=O)N(C)C[C@@H]1Oc2cc(C#Cc3ccccn3)ccc2S(=O)(=O)N([C@@H](C)CO)C[C@H]1C
→ 4	8	/	30	-0.4	0
> O=C(N/N=C/c1ccc(O)c([N+](=O)[O-])c1)c1ccncc1
→ 8	-9	6	/	/	-11
> O=C(NC(Cc1ccccc1)C(=O)O)/C(=C/c1ccc(Br)cc1)NC(=O)c1ccc(Br)o1 (stereo unspecified)
→ -10	-9	-20	12	-0.1	-2
> Cc1oc(-c2cccc(Cl)c2)nc1CS(=O)(=O)CC(=O)NCCN1CCOCC1
→ 7	-2	12	10	-0.2	3
> O=[N+]([O-])c1cccc(CN2CCCCCC2)c1
→ -2	-12	-12	15	0.5	0
> CC(C)Cn1c(N)c(C(=O)CSc2ncn[nH]2)c(=O)n(C)c1=O
→ -9	0	/	24	-0.5	-1
> CC1CCN(S(=O)(=O)c2ccc(C(=O)N3CCOCC3)cc2)CC1
→ 11	10	3	-23	0.1	-3
> O=c1cc(-c2ccccc2)[nH]c2ccccc12
→ -3	-28	3	-4	3.4	5
> CCN1C[C@@H]2[C@@H]3C(=O)N(Cc4ccccc4)C(=O)[C@@H]3[C@](C)(C1=O)N2C(=O)c1ccc(Br)cc1
→ 5	3	/	21	0.8	1
> CCOc1cccc(/C=C(/C#N)c2nc3ccccc3[nH]2)c1OCC(=O)O
→ /	0	-3	-14	-0.5	-8
> O=C(O)Cc1csc(-c2ccccc2)n1
→ -1	-4	-3	-4	0.0	-3
> CCC1(CC)SC(N)=NC1=O
→ -8	-2	/	10	3.1	-11
> CCOc1ccc2oc(=O)cc(CN3CCN(C(=O)c4ccco4)CC3)c2c1
→ 3	-13	-5	28	-0.2	9
> Nc1cc(=O)[nH]c(SCC(=O)Nc2nnc(-c3ccccc3)s2)n1
→ 1	-8	-6	8	-0.6	7
> CSCCC(NC(=O)c1ccco1)C(=O)N1CC=C(c2ccccc2)CC1 (stereo unspecified)
→ -5	-31	3	1	0.4	-9
> C=CS(=O)(=O)c1ccc(Oc2ccc(S(=O)(=O)C=C)cc2)cc1
→ 6	-38	4	2	-0.3	0
> CCN(CC)CCN(C(=O)/C=C/c1cccs1)c1nc2ccc(OC)cc2s1
→ /	-9	/	5	3.0	1
> CCOC(=O)c1c(C)c(C(=O)NCc2cccnc2)c(C)n1CC
→ 2	-10	-3	6	-0.2	-2
> CCOC(=O)c1[nH]c(C)c(C(=O)N2CCN(c3ccccc3OC)CC2)c1C
→ -2	-4	0	0	0.1	2
> CC12CCC(C(=O)N(CC3CO3)C1=O)C2(C)C (stereo unspecified)
→ 8	-4	25	51	-0.9	1
> CC(=O)N1N=C(c2ccco2)CC1c1ccc(Cl)o1 (stereo unspecified)
→ 1	-4	0	10	-0.5	0
> O=C(CC1NCCN(Cc2ccccc2)C1=O)Nc1ccc(Cl)cc1 (stereo unspecified)
→ 5	-6	-19	-10	0.6	-1
> CCCCNC(=O)c1nc(C2CCN(S(=O)(=O)c3ccccc3C(F)(F)F)CC2)oc1-c1ccccc1
→ -3	-3	/	/	0.7	1
> Cc1ccc(NC(=O)CSc2ccc(-c3cccnc3)nn2)c(C)c1
→ -16	2	-13	13	0.7	-6
> Cc1nnc(SCCN2C(=O)c3ccccc3C2=O)nc1C
→ /	-2	/	-8	0.4	1
> COC(=O)C(CSCc1ccccc1)NC(=O)CSc1nc(N)cc(=O)[nH]1 (stereo unspecified)
→ 9	-16	23	-20	1.1	5
> Cc1ccc(CN(C)C(=O)c2ccc(S(=O)(=O)N(C)c3ccccc3)cc2)o1
→ -8	-4	-13	-21	0.6	-3
> CN(C)c1nc(NCc2ccccc2)nc(SCC(=O)Nc2ccc(Cl)c(Cl)c2)n1
→ -1	-1	-9	4	0.2	-5
> COc1ccc(CNCC(O)COc2ccc(C)cc2[N+](=O)[O-])cc1 (stereo unspecified)
→ -7	-11	0	26	2.1	0
> Cc1nn(C)c(C)c1CN(C)C(=O)c1cc2nc(-c3ccco3)cc(C(F)(F)F)n2n1
→ -6	-13	18	-4	-0.3	2
> COc1cc(/C=C/C(=O)OCC(=O)Nc2sc3c(c2C#N)CCC(C)C3)ccc1OCC#N (stereo unspecified)
→ 2	-11	1	1	-0.7	6
> Cc1ccc(S(=O)(=O)N2C[C@H]3[C@H]4C(=O)N(c5ccccc5)C(=O)[C@H]4C[C@H](OC(=O)Nc4c(C)noc4C)[C@@]3(O)C2)cc1
→ 2	4	/	1	-0.2	11
> C[C@@H]1CCCCO[C@@H](CN(C)Cc2ccccc2)[C@@H](C)CN([C@H](C)CO)C(=O)c2cc(NC(=O)Nc3cccc4ccccc34)ccc2O1
→ 6	15	/	0	-0.8	-18
> O=[N+]([O-])c1ccc(NC(=S)N/C(=N/CS(=O)(=O)c2ccccc2)c2ccccc2)cc1
→ -4	-35	-13	6	-0.1	-13
> C[C@@]12C(=O)Nc3ccc(Cl)cc3C(=O)N1[C@H]1c3cc(Br)ccc3OC[C@@H]1[C@@H]2c1ccccc1
→ 16	-3	/	-3	0.7	6
> CC(NC(=O)CSc1nc2ccccc2c(=O)n1CCCO)c1ccccc1 (stereo unspecified)
→ 32	-1	22	-28	0.9	22
> COc1ccc(C(=O)NC(=S)N2CCC(C)CC2)cc1Br
→ 0	-5	-9	-3	0.8	15
> O=Cc1cc(N=Nc2cccc(C(=O)O)c2)ccc1O
→ 5	-13	29	53	-1.0	-17
> CC(=O)c1ccc(NC(=O)Nc2cccc3ccccc23)cc1
→ 3	-8	1	-12	-0.3	-2
